Rango complex inh – Rango-importin beta binding inhibition; Potency, µM (top dose mostly 92.2 µM), for the others: top-dose inhibition of complex formation; 340,000 compounds, 0.031% hits; Q14974; Rango CFP/YFP FRET sensor + importin beta, 45 min; active = rising FRET ratio curve, often small or poorly fitted; inconclusive = mostly compound fluorescence or quenching in the first reads; inactive = flat curves in all reads;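 also: potency is read from the fitted curve at half-maximal effect; 0% = DMSO wells and 100% = buffer wells lacking importin beta; nearly all actives have a fitted effect of over 15% in size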
Target sequence (Q14974 whole entry, looked up): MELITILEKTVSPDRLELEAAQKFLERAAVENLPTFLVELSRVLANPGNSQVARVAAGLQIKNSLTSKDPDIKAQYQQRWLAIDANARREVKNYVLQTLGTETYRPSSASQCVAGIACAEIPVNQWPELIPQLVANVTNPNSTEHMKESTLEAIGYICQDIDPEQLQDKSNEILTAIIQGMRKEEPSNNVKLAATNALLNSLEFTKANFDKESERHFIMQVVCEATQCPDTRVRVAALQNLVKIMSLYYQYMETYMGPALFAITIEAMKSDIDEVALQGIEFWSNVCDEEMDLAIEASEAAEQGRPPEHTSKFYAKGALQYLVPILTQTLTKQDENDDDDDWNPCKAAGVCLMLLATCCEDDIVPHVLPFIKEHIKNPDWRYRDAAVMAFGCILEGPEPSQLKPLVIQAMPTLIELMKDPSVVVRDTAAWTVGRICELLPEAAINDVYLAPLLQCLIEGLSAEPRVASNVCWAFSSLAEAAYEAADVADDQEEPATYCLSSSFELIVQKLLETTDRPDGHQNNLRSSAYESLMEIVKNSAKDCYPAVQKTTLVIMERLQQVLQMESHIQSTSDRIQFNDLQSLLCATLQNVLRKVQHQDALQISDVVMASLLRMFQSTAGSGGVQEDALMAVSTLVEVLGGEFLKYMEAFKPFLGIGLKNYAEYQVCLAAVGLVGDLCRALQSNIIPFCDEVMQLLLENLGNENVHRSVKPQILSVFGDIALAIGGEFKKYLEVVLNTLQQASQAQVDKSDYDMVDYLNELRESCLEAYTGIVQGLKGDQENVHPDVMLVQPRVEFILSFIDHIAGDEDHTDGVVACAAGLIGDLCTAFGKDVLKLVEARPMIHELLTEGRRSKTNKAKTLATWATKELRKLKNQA
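Inhibition scored from the CFP 486 nm/YFP 530 nm FRET ratio 45 min after adding 0.125 microM importin beta to 50 nM Rango biosensor preincubated 5 min with compound (room temperature, PBS with DTT, Tween-20, BSA). No-importin wells as positive control.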
miR-21 FLuc – miR-21 reporter, rising signal; HeLa miR-21 FLuc reporter, luciferase, 48 h; Potency, µM (series often up to 38.3 µM), without a hit: top-dose reporter change, positive = more light; 340,000 tested, under 10 active; active = well fitted rising curve with a large enough effect; inconclusive = small, poorly fitted or top-dose-only effect; inactive = no such curve, though single readings can be large or run the other way;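 also: % of control where 0% means no effect; miR-21 action dims this reporter so a rising signal means less miR-21 action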
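Luminescence from a firefly luciferase reporter carrying a miR-21 binding site downstream, stably expressed under a CMV promoter in HeLa cells that make miR-21 endogenously, reports miRNA modulation after 48 h compound exposure up to approximately 40uM final.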
GLA inh pH 4.5 – alpha-galactosidase A (human) inhibition, pH 4.5. AID 1467. purified enzyme, 4-MU-alpha-Gal fluorescence, pH 4.5. activity change, negative = inhibition, % at 105 µM. 230,000 tested, under 10 active; inconclusive = small, poorly fitted or top-dose-only inhibition, or a rising curve; inactive = flat fitted curve, though single readings scatter; no compound was filed as active;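 also: 0% = full activity with enzyme and -100% = basal without enzyme; dose as in the result columns while the protocol names 77 µM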
Rango release inh – inhibitors of RanGTP-induced Rango-importin beta complex dissociation; O95149+P62826; Potency, µM (highest dose often 46.1 µM), for inactives: at the highest dose activity change, negative = inhibition; Biochemical FRET Rango-importin beta, RanGTP-induced dissociation; 340,000 compounds, 0.071% hits; active means falling FRET ratio curve, often poorly fitted, with flat reads before Ran was added; inconclusive means other falling curves, or compound fluorescence or quenching; inactive means flat or rising ratio curve;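 also: potency is read from the fitted curve at half-maximal effect; % of control where 0% means no effect; nearly all actives have a fitted effect of over 45% in size; -100% = wells without RanGTP and RCC1; the record marks most hits as doubtful in a second field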
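Rango/importin beta premix (0.1/0.25 uM final), PBS + 1 mM DTT + 0.02% Tween-20 + 0.1% BSA; cpd 5 min RT; FRET pre-read; + RanGTP-RCC1 (0.6 uM Ran, 2 mM GTP, 0.2 uM RCC1); 45 min RT; FRET post-read, ex 430, em 486/530 nm.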
Numbers without * were called inactive; u = inconclusive; x = not tested or not shown. The list is partial; the hit share may differ from the screen's.

[1] O=C(Cn1cc[n+](Cc2ccccc2)c1)c1ccc([N+](=O)[O-])cc1
[2] CCN(C(=O)c1cc2cc(OC)ccc2oc1=O)c1ccccc1
[3] CCC(C(=O)Nc1ccc2[nH]ncc2c1)c1ccccc1 (stereo not drawn)
[4] COc1ccc(-c2cc(C(=O)NC3CCCCC3)no2)cc1OC
[5] O=C(CC12CC3CC(CC(C3)C1)C2)NC1CC1
[6] CCN(CC(=O)Nc1ccccc1C(F)(F)F)C(=O)c1cc(S(=O)(=O)N2CCCCCC2)ccc1OC
Compound	1	2	3	4	5	6
Rango complex inh	1.3%	-0.2%	1.0%	0.5%	-2.3%	-0.4%
miR-21 FLuc	16%	-4%	17%	1%	x	x
GLA inh pH 4.5	3	7	x	x	x	x
Rango release inh	-6%	-3%	0%	2%	-14%	41%

[7] O=C(CN1C(=O)NC2(CCCCC2)C1=O)NCCC1=CCCCC1
[8] Cc1ccc(S(=O)(=O)N(Cc2ccc([N+](=O)[O-])cc2)C(=O)N2CCN(C)CC2)cc1
[9] COc1ccnc2c1c(=O)n(Cc1ccccc1Cl)c(=O)n2C
[10] CCCCc1c(C(=O)O)cc(OC)cc1C(=O)O
[11] CC(=O)Nc1ccc(OCC(=O)c2ccc(C)cc2C)cc1
[12] CCOc1ccc(C(C)=O)cc1COC(=O)CCc1cc(OC)c(OC)c(OC)c1
Compound	7	8	9	10	11	12
Rango complex inh	4.8%	0.3%	0.6%	0.5%	-0.4%	-2.8%
miR-21 FLuc	-10%	x	2%	-3%	-2%	-1%
GLA inh pH 4.5	-3	x	x	-4	-1	x
Rango release inh	-7%	9%	3%	0%	-3%	-4%

[13] C#Cc1ccc([C@@H]2C=C(C(=O)O)O[C@H](OCc3ccc(CO)cc3)C2)cc1
[14] CCOC(=O)Cc1c(C)nc(-c2ccccc2)[nH]c1=O
[15] Cc1cc(C(F)(F)F)nn1CCCNC(=O)c1cnccn1
[16] CCOc1cccc(CN2CCCC(C(=O)c3cc(Cl)ccc3OC)C2)c1O (stereo not drawn)
[17] O=C(C[n+]1cccc(NC(=O)c2ccccc2)c1)c1cccc([N+](=O)[O-])c1
[18] c1nc(COc2nsnc2N2CCOCC2)cs1
Compound	13	14	15	16	17	18
Rango complex inh	2.7%	0.8%	u	-0.9%	1.4%	2.0%
miR-21 FLuc	-2%	-2%	-5%	4%	-2%	-1%
GLA inh pH 4.5	3	3	5	x	-6	4
Rango release inh	-9%	-4%	19%	3%	7%	3%

[19] CC(=O)C1=C(O)CC(C)(C)CC1=NCCc1nc2ccccc2[nH]1
[20] CCCOc1ccc(NC(=O)CCC(=O)NC(C)c2ccccc2)cc1 (stereo not drawn)
[21] Cc1nc2ccccc2c(=O)n1NS(C)(=O)=O
[22] O=C(NOCc1ccccc1)c1coc(-c2ccccc2)n1
[23] O=C(COc1ccc(Cl)cc1)Nc1ncccn1
[24] CCOC(=O)/C(C#N)=C1/SC(C)C(=O)N1c1ccc(Br)cc1 (stereo not drawn)
Compound	19	20	21	22	23	24
Rango complex inh	3.3%	-1.5%	-2.9%	1.3%	-3.6%	3.3%
miR-21 FLuc	-9%	2%	5%	x	-37%	-14%
GLA inh pH 4.5	-1	x	5	x	3	-5
Rango release inh	7%	1%	12%	-2%	-21%	1%

[25] COc1ccc(-c2nn(Cc3ccccc3)cc2C(=O)N2CCN(c3ccccn3)CC2)cc1OC
[26] O=C(O)CSc1ccc(NC(=O)Nc2ccccc2F)cc1
[27] COCc1nnc(NC(=O)C2CC(=O)N(C3CCCC3)C2)s1 (stereo not drawn)
[28] CC(C)c1ccc(NC(=O)CCN2C(=O)c3ccc([N+](=O)[O-])cc3C2=O)cc1
[29] CC1CN(S(=O)(=O)c2ccc(C(=O)Nc3ccccc3F)cc2)CC(C)O1 (stereo not drawn)
[30] CCc1nc2ccccc2c(C(=O)NCc2ccc(OC)cc2)c1C
Compound	25	26	27	28	29	30
Rango complex inh	1.8%	2.9%	-2.7%	-2.6%	1.7%	-2.1%
miR-21 FLuc	x	-5%	0%	-4%	x	-1%
GLA inh pH 4.5	x	-10	x	-10	x	-5
Rango release inh	-16%	-14%	-10%	0%	1%	15%

[31] Cc1ccc(OCCCC(=O)NC(C)c2ccccc2)c(C)c1 (stereo not drawn)
[32] CN1CCc2nc(SCc3ccc(Cl)cc3)c(C#N)c(-c3cccs3)c2C1
[33] O=C(Nc1cccc2cccnc12)c1cccc(N2C(=O)CCC2=O)c1
[34] C/C(=N\NC(=O)c1ccccn1)C12CC3CC(CC(C3)C1)C2
[35] CC(=O)c1cccc(NC(=O)c2ccc3c(c2)CCN3S(=O)(=O)c2ccccc2)c1
[36] CC(C)(C)c1ccc(N2C(=O)CC(c3ccccc3)C2=O)cc1 (stereo not drawn)
Compound	31	32	33	34	35	36
Rango complex inh	4.2%	u	-2.1%	-5.2%	-1.5%	0.1%
miR-21 FLuc	1%	x	-3%	-42%	u	-7%
GLA inh pH 4.5	-5	x	7	10	x	x
Rango release inh	0%	u	4%	11%	-8%	0%

[37] O=C(NC1CC2CCCC(C1)N2Cc1cccs1)N1CCOCC1 (stereo not drawn)
[38] O=C(CCc1nnc2ccc(NCc3ccco3)nn12)Nc1ccc(F)cc1F
[39] N#C/C(C(=O)N1CCOCC1)=c1/s/c(=C\c2ccccn2)c(=O)n1-c1ccccc1
[40] CC1(c2nnc(-c3ccncc3)o2)CC(c2ccc(F)cc2)=NO1 (stereo not drawn)
[41] CCOC(=O)CNC(=O)Nc1cccc(Cl)c1C
[42] N#Cc1ccc(CN2CCN(C(=O)c3cc(Cl)c4c(c3)OCCO4)CC2)cc1
Compound	37	38	39	40	41	42
Rango complex inh	-0.4%	0.1%	-2.1%	2.5%	8.2%	-3.3%
miR-21 FLuc	-11%	-6%	-2%	6%	-2%	x
GLA inh pH 4.5	9	x	4	-8	0	x
Rango release inh	0%	1%	-2%	16%	-10%	0%

[43] C=CCNS(=O)(=O)c1ccc(C(=O)OCc2cc(=O)oc3cc(OC)ccc23)cc1
[44] CC(C)C[C@@H](CO)N1CCNCCC1=O
[45] O=S(=O)(c1cc(F)cc(F)c1)N1CCN(c2ncccn2)CC1
[46] CCOC(=O)N/N=C\c1ccc(OC(=O)c2ccc3c(c2)OCO3)cc1
[47] O=C(CN1C2CCC1CC(NC(=O)Nc1ccccc1)C2)NCc1ccco1 (stereo not drawn)
[48] COc1ccc(/C=N\NC(=O)c2ccccc2OC)cc1COc1c(F)c(F)c(F)c(F)c1F
Compound	43	44	45	46	47	48
Rango complex inh	-4.6%	-5.2%	0.9%	0.3%	0.0%	-0.5%
miR-21 FLuc	-3%	0%	-8%	-34%	-17%	1%
GLA inh pH 4.5	x	x	-7	1	0	x
Rango release inh	1%	-5%	-18%	-3%	-8%	0%

[49] CC(=O)c1cc2c(cc1NS(=O)(=O)c1ccc(C)cc1)OCO2
[50] CC(C)CN(C(=O)CN1CCN(c2ccccc2O)CC1)c1c(N)n(CC(C)C)c(=O)[nH]c1=O
[51] Cc1ccc(NNC(=O)Nc2ccc(Cl)cc2)nn1
[52] Cc1ccccc1NC(=S)N(CCN1CCCCC1)Cc1ccco1
[53] CC(C)C(C(=O)NCC1CCCO1)N(C(=O)CNS(=O)(=O)c1ccc(F)cc1)C1CCCCC1 (stereo not drawn)
[54] COc1ccc(CCC(=O)Nc2cc3c4c(c2)CC(=O)N4CCC3)cc1
Compound	49	50	51	52	53	54
Rango complex inh	3.5%	-1.3%	1.4%	-1.9%	-0.6%	-3.8%
miR-21 FLuc	-1%	-4%	-6%	-3%	2%	x
GLA inh pH 4.5	-1	-7	4	0	x	x
Rango release inh	-16%	2%	6%	-20%	7%	-6%

[55] O=c1c2c(-c3cccc([N+](=O)[O-])c3)ccnc2[nH]n1-c1ccccc1
[56] COc1ccc(C(=O)NC(=S)Nc2cccc(Cl)c2N2CCOCC2)cc1[N+](=O)[O-]
[57] CC1CCCC(C)N1C(=O)COC(=O)c1cc([N+](=O)[O-])ccc1N1CCOCC1 (stereo not drawn)
[58] C=CCNC(=O)COC(=O)COc1ccc(Cl)cc1
[59] Cc1n[nH]c(C)c1Cc1c(F)cccc1Cl
[60] CN1N=C(C(=O)N2CCc3c([nH]c4ccccc34)C2c2ccccc2Cl)CCC1=O (stereo not drawn)
Compound	55	56	57	58	59	60
Rango complex inh	0.2%	2.8%	-4.7%	u	-2.5%	0.0%
miR-21 FLuc	-1%	-1%	x	-1%	-5%	-69%
GLA inh pH 4.5	x	4	x	-2	2	-1
Rango release inh	-11%	-7%	-1%	9%	u	6%

[61] CCCCCCN1C2=NCCN2c2ccccc21
[62] CCOc1cc(/C=C2/C(=N)N3N=C(C)SC3=NC2=O)ccc1OS(=O)(=O)c1ccc(C)cc1
[63] Cc1cc[n+](CC(=O)Nc2ccccc2)cc1
[64] COc1ccc(C(=O)NC2CCSC2=O)cc1 (stereo not drawn)
[65] Cc1cc(C)c2nc(N3CCCC(C(=O)NCCN4CCOCC4)C3)sc2c1 (stereo not drawn)
[66] CC(C)=CCN1CCN(CCCc2ccccc2)CC1CCO (stereo not drawn)
Compound	61	62	63	64	65	66
Rango complex inh	2.3%	u	-0.9%	2.1%	-5.5%	0.5%
miR-21 FLuc	19%	5%	1%	-7%	-16%	-7%
GLA inh pH 4.5	0	x	x	9	-9	x
Rango release inh	11%	-13%	11%	-8%	5%	3%

Looked up above.
no. 9 in Rango complex inh → 0.6%
no. 14 in GLA inh pH 4.5 → 3

Along the list, quoted from above:
miR-21 FLuc, entries 61–65, in order: 19%, 5%, 1%, -7%, -16%

Further entries
[67] CCOC(=O)c1ccc(-c2c(-c3ccc(OC)cc3)oc(=O)c3cc(OC)c(OC)cc23)cc1F
[68] Cc1ccc(NC(=O)CSc2nnc(CNC(=O)c3ccco3)o2)cc1Cl
[69] OCC[C@@H]1C[C@H](O)[C@@H](O)[C@@]2(CCCO2)O1
[70] Cc1ccc(C)c(OCC(=O)Nc2ccccc2C(=O)N2CCOCC2)c1
[71] COc1cc(C(=O)O[C@H]2C/C(C)=C/CC[C@]3(C)O[C@@H]3C(O)C2C(C)C)cc(OC)c1OC (stereo partly drawn)
Compound	67	68	69	70	71
Rango complex inh	-5.0%	0.0%	-0.1%	-0.7%	-4.8%
miR-21 FLuc	x	0%	x	1%	14%
GLA inh pH 4.5	x	x	x	x	x
Rango release inh	-8%	-8%	0%	-7%	-14%

A different layout for part of the listing above:
| no. | mol | Rango complex inh | miR-21 FLuc | GLA inh pH 4.5 | Rango release inh |
| --- | --- | --- | --- | --- | --- |
| 67 | CCOC(=O)c1ccc(-c2c(-c3ccc(OC)cc3)oc(=O)c3cc(OC)c(OC)cc23)cc1F | -5.0% | x | x | -8% |
| 68 | Cc1ccc(NC(=O)CSc2nnc(CNC(=O)c3ccco3)o2)cc1Cl | 0.0% | 0% | x | -8% |
| 69 | OCC[C@@H]1C[C@H](O)[C@@H](O)[C@@]2(CCCO2)O1 | -0.1% | x | x | 0% |
| 70 | Cc1ccc(C)c(OCC(=O)Nc2ccccc2C(=O)N2CCOCC2)c1 | -0.7% | 1% | x | -7% |
| 71 | COc1cc(C(=O)O[C@H]2C/C(C)=C/CC[C@]3(C)O[C@@H]3C(O)C2C(C)C)cc(OC)c1OC (stereo partly drawn) | -4.8% | 14% | x | -14% |

Assay outcomes as filed in PubChem.
